Sa growth inh: inhibitors of Staphylococcus aureus growth at 42 °C. S. aureus RN4220 growth, OD600, 20 h; stronger effect = lower value. 170,000 tested, 0.53% active. relative growth, % (no concentration beside the values);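 active = growth at 42 °C up to 50% and 20 or more points under that at 30 °C, or under 10% at both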;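 note: 300 nL library stock went into each well; scaled to the means of positive and negative controls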
HCMV NEC inh: inhibitors of HCMV UL50-UL53 nuclear egress complex interaction; HTRF UL50-UL53 interaction, normalized percent inhibition; inhibition, % (test concentration not listed); 190,000 tested, 0.15% active; AID 1918969;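 active = both replicates at 50% or more, plus weaker picks with an unusually low signal ratio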;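 note: stock transfer was 100 nL into about 20 µL; 0% = negative control wells and 100% = wells with untagged competitor protein; inactives centre near -12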
GIV-Gai inh: inhibitors of GIV GBA-motif binding to rat Galpha-i3. Galpha-i3/FITC-GIV peptide fluorescence polarization, 90 min; stronger effect = lower value; scaled: aluminum fluoride 0%, vehicle 100%. 210,000 tested, 0.42% active. P08753. AID 1224905. percent of control (FP), % (test concentration not listed);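 active = replicate mean at 85% of control or lower, very high polarization wells dropped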;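 note: wells of about 15 µL received 100 nL stock; the first replicate is given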
Target sequence (P08753 whole entry, looked up): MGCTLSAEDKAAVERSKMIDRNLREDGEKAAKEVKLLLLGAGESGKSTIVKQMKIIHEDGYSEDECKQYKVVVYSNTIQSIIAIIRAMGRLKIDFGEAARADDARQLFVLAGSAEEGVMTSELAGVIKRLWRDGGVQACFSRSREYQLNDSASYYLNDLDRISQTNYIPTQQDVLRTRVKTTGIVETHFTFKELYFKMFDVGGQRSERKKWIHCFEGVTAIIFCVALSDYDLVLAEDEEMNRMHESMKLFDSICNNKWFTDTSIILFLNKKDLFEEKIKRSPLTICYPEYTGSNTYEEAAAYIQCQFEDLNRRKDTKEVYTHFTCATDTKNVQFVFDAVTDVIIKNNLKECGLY
Sa growth inh second temp: second read-out of Sa growth inh, no call of its own (marks repeat the call); relative growth, %; measured here: growth at 30 °C;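 optical density after 20 h as mean of two plates; 100% = untreated growth and lower means inhibition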
Active calls of the source: *; nt = no result given; & = joins results of further samples.

SMILES	Sa growth inh	Sa growth inh second temp	HCMV NEC inh	GIV-Gai inh
O=S(=O)(c1cccs1)N1CCN(Cc2nc3ccccc3s2)CC1	97	91	-12	nt
Cc1occc1C(=O)NC(C)C12CC3CC(CC(C3)C1)C2 (configuration not stated)	100	93	-10	99
O=S(=O)(/N=C(\Nc1ccccc1)c1ccccc1)c1ccc(Br)cc1	106	87	nt	102
Cc1ccc(-c2nc3cnccn3c2Nc2ccccc2C)cc1	nt	nt	-25	101
c1ccc2c(OCc3nc4c5ccccc5ncn4n3)cccc2c1	nt	nt	-16	99
Cc1oc2ncnc(N3CCOCC3)c2c1C(=O)N1CCN(c2cccc(C(F)(F)F)c2)CC1	87	86	nt	101
Cn1c(=O)[nH]c(=O)c2[nH]c(CN3CCN(Cc4ccccc4)CC3)nc21	100	97	-7	104
CCC(C)NC(=O)c1ccccc1NC(=O)CN1C(=O)c2ccccc2S1(=O)=O (configuration not stated)	84	80	-34	103
O=c1ccc(-c2ccccc2)nn1Cc1nc(-c2ccccc2)no1	nt	nt	-12	106
Cc1nn(C(=O)c2ccc(Cl)cc2)c(C)c1Sc1nnc(C(F)(F)F)n1C	106	88	-20	102
Cn1c(SCc2ccc(F)cc2)nc2ccc(C(=O)NCc3cccc(Cl)c3)cc21	112	93	-13	99
COc1ccc(F)cc1S(=O)(=O)Nc1ccc2c(c1)N(C(C)=O)CCC2	86	85	-41	113
Cc1nc2nc(NC(=O)c3ccc(C(C)(C)C)cc3)[nH]n2c(=O)c1C	99	92	-7	103
CC1CCN(CCCN)CC1	98	92	8	105
Fc1ccc(Nc2nc3ccc(Cl)cc3n3cnnc23)c(F)c1	95	75	13	104
CC1(C)CC(=O)CC(=NC2CCS(=O)(=O)C2)C1 (configuration not stated)	96	88	-21	nt
Cc1ccc(NC(=O)C2CCN(c3nnc(-n4c(C)ccc4C)s3)CC2)cc1C	nt	nt	-12	109
O=C(O)CC(NC(=O)c1ccccc1Cl)c1ccccc1 (configuration not stated)	106	91	-3	nt
Cc1cc2c(cc1C)C(=O)C(c1ccccc1)=C(NCc1ccccc1)C2=O	124	86	nt	100
CC(C)c1ccc(NC(=O)CCn2c(=O)c3cccn3c3ccccc32)cc1	90	87	-22	99
O=C([C@@H](c1ccccc1)N1Cc2ccccc2C1=O)N1CCN(Cc2ccccc2)CC1	103	83	0	104
Cc1ccc(NC(=O)CSc2ncnc3nc(N(C)C)sc23)c(F)c1	nt	nt	-17	115
CC(NC(=O)c1ccco1)C(=O)N1CCc2ccccc2C1 (configuration not stated)	91	95	-11	nt
Cc1onc(-c2c(Cl)cccc2Cl)c1C(=O)NC(=S)Nc1ccccc1	93	88	-19	106
COC(=O)CN1c2ccccc2NC2=C(C(=O)CC(C)(C)C2)C1c1ccc(OC)cc1 (configuration not stated)	94	93	nt	101
O=C(CSc1ccc2c(c1)OCCO2)NC(=O)NC1CCCC1	90	81	-2	nt
Cc1cccn2c(=O)c3cc(C(=O)NC(C)c4ccccc4)c(=N)n(CCCO)c3nc12 (configuration not stated)	102	87	-63	106
COc1ccccc1C(=O)Nc1ccc(CC#N)cc1	80	78	1	nt
O=C(Nc1cccc(C(F)(F)F)c1)c1ccc(F)cc1	67	92	35	nt
CC(C)c1cnc2c(c1SCC(=O)c1ccccc1)c(=O)n(C)c(=O)n2C	82	88	nt	105

Single entries from the results shown:
Under Sa growth inh second temp, Cc1oc2ncnc(N3CCOCC3)c2c1C(=O)N1CCN(c2cccc(C(F)(F)F)c2)CC1 shows 86
Under Sa growth inh second temp, CC(C)c1cnc2c(c1SCC(=O)c1ccccc1)c(=O)n(C)c(=O)n2C shows 88
Under Sa growth inh, COc1ccccc1C(=O)Nc1ccc(CC#N)cc1 shows 80

(listing goes on)
SMILES	Sa growth inh	Sa growth inh second temp	HCMV NEC inh	GIV-Gai inh
Cc1cc(=O)[nH]c(Nc2ccc(O)cc2C)n1	nt	nt	-22	102
CC(NC(=O)c1cc(-c2ccc3c(c2)OCO3)nc2ccccc12)C1CCCO1 (configuration not stated)	116	98	-24	104
O=[N+]([O-])c1c(Sc2ncnc3nc[nH]c23)ccc2nsnc12	nt	nt	-59	100
COc1ccc(C(=O)Nc2ccc3oc(-c4cccnc4)nc3c2)cc1OC	110	98	-22	108
CC(C)(C)NC(=O)c1ccccc1NC(=O)c1cccnc1	99	94	-34	108
Cn1nnnc1SCCCNCc1cc(Cl)ccc1OCc1ccc(F)cc1	88	70	-38	100
CCc1nn(C(CC)C(=O)NCc2ccccc2F)c(=O)c2cc3occc3n12 (configuration not stated)	103	90	-11	97
O=C1CN(C(=O)Cn2cnc3ccc(Cl)cc3c2=O)c2ccccc2N1	47	74	-29	nt
COc1ccc(CNC(=O)CCC2N=C3c4ccccc4N=C(SCC(=O)Nc4cc(C)[nH]n4)N3C2=O)cc1 (configuration not stated)	101	90	-9	101
CCS(=O)(=O)N1CCc2cc(C(=O)Nc3cc(C(F)(F)F)ccc3Cl)ccc21	87	95	2	100
CCN1C(=O)c2ccccc2Sc2ccc(C(=O)O)cc21	108	90	2	108
Cc1ccccc1NC(=S)NCC(c1cccnc1)N(C)C (configuration not stated)	87	85	-22	100
COc1ccc(N2CCN(C(=O)C(NS(=O)(=O)c3ccc4nc(C)sc4c3)C(C)C)CC2)cc1 (configuration not stated)	93	80	-19	100
COc1ccc2[nH]c3c(=O)n(N)c(=S)[nH]c3c2c1	84	88	-8	107
O=C(Nc1ccccc1)Nc1cccc(-c2noc(C3CCCC3)n2)c1	nt	nt	-32	104
CCCC(=O)N(Cc1nc2nc(C)cc(=O)n2[nH]1)c1ccccc1OC	nt	nt	-24	99
CC1S/C(=N\N=C2\CCCc3ccccc32)NC1=O (configuration not stated)	102	81	-41	102
O=C(CCC(=O)N1CCN(c2nc3cccnc3s2)CC1)NCCc1c[nH]c2ccc(Cl)cc12	nt	nt	-1	107
CCOC(=O)c1c(NC(=O)C(C)Sc2cn(CCNC(=O)c3ccccc3OC)c3ccccc23)sc2c1CCC2 (configuration not stated)	79	88	-1	101
Cn1c(C(=O)Nc2ccc3c(c2)OCCO3)cc2c(=O)oc3ccccc3c21	nt	nt	-14	101
O=C(NCc1n[nH]c(=S)n1Cc1ccccc1)c1ccccc1	83	76	-19	100
N=c1n(CC(=O)c2ccc(Cl)c(Cl)c2)c2ccccc2n1Cc1ccccc1	134	63	nt	103
CC1=NN(c2ccccc2)C(=O)/C1=C1/C(=O)N(c2ccccc2)N=C1C	97	86	106*	61*
N=C1c2ccccc2CN1c1ccc(S(=O)(=O)N2CCCCC2)cc1	82	89	-2	nt
CN(C)c1nc(Oc2ccc(OCCOc3ccccc3)nn2)nc(N(C)C)n1	nt	nt	-15	106
CC(C)N(Cc1cc2ccccc2[nH]c1=O)C(=O)c1ccncc1	89	89	-22	97
COCc1nc(-c2ccccn2)[nH]c(=O)c1C	112	98	0	100
CC(C)(C)c1ccc(OCCC(=O)O)cc1	103	95	-26	nt
Cc1cccc(C)c1NC(=O)c1c(C)oc2ccc(OCc3ccccc3)cc12	nt	nt	-8	107
CCc1nc(NCC(C)C)c(C#N)c2c1CCCC2	105	95	nt	101
COc1ccc(C2C(C(=O)c3cccs3)=C(O)C(=O)N2CCCN(C)C)c(OC)c1 (configuration not stated)	101	99	-3	106
O=C(c1cc2sccc2n1Cc1ccccc1)N1CCN(Cc2ccc3c(c2)OCO3)CC1	102	78	-18	104
C=CCOC(Cn1ccnc1)c1ccc(Cl)cc1Cl (configuration not stated)	79	51	-55&-11	nt
COc1ccc(-c2nn(C)c(=O)[nH]2)cc1	81	86	-13	107
CCOCCn1c(=NC(=O)C(C)(C)C)sc2cc(S(C)(=O)=O)ccc21	104	83	-17	105
COC(=O)c1ccc(Oc2ncnc3scc(-c4ccccc4)c23)o1	86	77	-10	101
c1ccc(SCCNC2=NCCCS2)cc1	86	93	4	nt
Cn1cc(S(=O)(=O)N2CCOCC2)cc1C(=O)N1CCN(c2ccc(F)cc2)CC1	nt	nt	-1	105
O=C1NC(=O)C(CC(=O)N2CCCCC2)N1 (configuration not stated)	103	94	12	108
CC(C(=O)Nc1ccc(Br)cc1)N1CCN(S(=O)(=O)c2ccccc2)CC1 (configuration not stated)	94	98	-9	nt
CC(C)(C)c1ccc2c(c1)N(CC(=O)O)C(=O)CO2	108	96	-9	103
Cc1cc(-c2ccc(C)c(S(=O)(=O)Nc3ccc(Cl)cc3)c2)n[nH]1	nt	nt	-15	105
CCc1ccc(NC(=O)CC2C(=O)N(c3ccc(F)cc3)C(=O)N2Cc2ccc(F)cc2)cc1 (configuration not stated)	110	79	nt	100
CN1C(=O)N(S(=O)(=O)c2ccc(F)c(F)c2F)C(=O)C1(C)C	83	85	-35	nt
Cc1cccn2c(=O)c(C(=O)NCCc3ccccc3)cnc12	100	86	nt	95

Printed as active in GIV-Gai inh, of those listed so far:
| structure | Sa growth inh | Sa growth inh second temp | GIV-Gai inh |
| --- | --- | --- | --- |
| CC1=NN(c2ccccc2)C(=O)/C1=C1/C(=O)N(c2ccccc2)N=C1C | 97 | 86 | 61* |

Carrying on.
SMILES	Sa growth inh	Sa growth inh second temp	HCMV NEC inh	GIV-Gai inh
FC(F)(F)c1ccc(CSc2ccccn2)cc1	108	112	2	99
CC1CC(=O)Nc2ccccc2N1C(=O)c1ccco1 (configuration not stated)	101	85	-15	97
CC1(C)CC2CC(C)(CN2C(=O)Nc2ccc3snnc3c2)C1 (configuration not stated)	89	73	nt	101
Cc1cc(C)c(C)c(C(=O)O)c1C	122	86	-15	nt
O=C1CN(C(=O)/C=C/c2ccc(Cl)cc2)c2ccccc2N1	40	54	-47	nt
CCCCN1CC(C(=O)NCCc2ccc(Cl)cc2)CC1=O (configuration not stated)	118	82	nt	101
O=S(=O)(c1ccccc1)N1CCC(n2cnc3ccccc32)CC1	99	76	-6	98
COc1ccc(N2CCN(CCCNC(=O)C3CCN(S(=O)(=O)N4CCOCC4)CC3)CC2)cc1	88	81	1	103
O=C(OCc1ccccc1)Oc1cncc(C(=O)O)c1	113	81	nt	102
O=C(COc1ccc(Cl)cc1)OCc1cc(=O)n2nc(-c3cccs3)sc2n1	96	78	nt	101
CSc1nsc(SCCN2C(=O)c3ccccc3C2=O)n1	101	84	-31	109
C=CCSc1nnc(CCc2nnc(SCC=C)n2-c2ccccc2)n1-c1ccccc1	92	79	-33	103
COc1cc(C2N(c3ccccc3)CCN2c2ccccc2)cc(OC)c1OC	102	79	-12	93
Cc1cccc(-c2nc3ccccc3c(=O)n2OC(=O)c2cccc(Cl)c2)c1	nt	nt	-16	101
O=c1c2ccccc2ncn1-c1ccc(F)cc1	101	84	-36	99
Cc1nc(SCC(=O)c2cc(C)n(-c3ccccc3)c2C)c2ccsc2n1	105	102	7	103
Cc1ncc(CO)c(CNc2ccccc2)c1O	95	90	-58	107
C(#Cc1ccc(-c2ccn[nH]2)s1)c1ccccc1	36	26	-11	106
CCOC(=O)c1c(NC(=O)c2nc(SC)ncc2Cl)sc(C)c1C	108	85	-14	104
NC(=O)CN1CCN(c2ccc(Cl)cc2)CC1	90	83	-20	104
Nc1cc(N)nc(SC(C(=O)N2CCCCC2)c2ccccc2)n1 (configuration not stated)	110	83	-39	nt
Cc1ccccc1OCC(=O)Nc1ccc(NC(=O)c2ccco2)cc1	107	102	18	102
COc1ccc(-c2nonc2NC(=O)COc2ccccc2)cc1	103	88	-10	107
Cc1ccc(CNC(=O)Nc2cn(CC(C)C)c(=O)c3ccccc23)cc1	83	87	nt	96
Cc1sc2nc(C)n(C3CCN(CC(=O)NCC4CC4)CC3)c(=O)c2c1C	80	82	-20	101
O=C(OCC1CCCO1)c1cnn2c(C(F)(F)F)cc(-c3ccccc3)nc12 (configuration not stated)	nt	nt	-52	104
Cc1nnc(NC(=O)C(C)Oc2ccc(Cl)c(C)c2)s1 (configuration not stated)	105	99	-18	107
COc1ccc(Cl)cc1NC(=O)NCCCn1c(-c2ccncc2)nc2cccnc21	nt	nt	-2	110
CCOC(=O)C1CCN(c2c(NC(C)CC)c(=O)c2=O)CC1 (configuration not stated)	nt	nt	-19	96
CC1CC(C)CN(c2nnc(NC(=O)c3cc(-c4ccc(Br)cc4)on3)s2)C1 (configuration not stated)	92	70	-21	96
COC(=O)c1ccc(NC(=O)C(c2ccccc2)N2Cc3ccccc3C2=O)cc1 (configuration not stated)	88	85	nt	106
CN(C)c1nc(Nc2ccc(F)cc2)nc(Oc2ccc(F)cc2)n1	115	93	-5	109
CC(NC(=O)c1ccccc1F)C1CC1 (configuration not stated)	89	87	-20	nt

In the list so far, these have a COOH group:
SMILES	Sa growth inh	Sa growth inh second temp	HCMV NEC inh	GIV-Gai inh
O=C(O)CC(NC(=O)c1ccccc1Cl)c1ccccc1 (configuration not stated)	106	91	-3	nt
CCN1C(=O)c2ccccc2Sc2ccc(C(=O)O)cc21	108	90	2	108
CC(C)(C)c1ccc(OCCC(=O)O)cc1	103	95	-26	nt
CC(C)(C)c1ccc2c(c1)N(CC(=O)O)C(=O)CO2	108	96	-9	103
Cc1cc(C)c(C)c(C(=O)O)c1C	122	86	-15	nt
O=C(OCc1ccccc1)Oc1cncc(C(=O)O)c1	113	81	nt	102

Compound activity deposited in PubChem BioAssay by ICCB-Longwood Screening Facility, Harvard Medical School.
